# UCH37 inh – inhibitors of human deubiquitinating enzyme UCH37. Q9Y5K5. purified proteasome/UCH37, Ub-AMC cleavage fluorescence. inhibition, % (test concentration not listed). 0.33% of 330,000 active;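 active = mean of two replicates above 20%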;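 also: 0% = compound-free wells with enzyme and 100% = wells lacking proteasome; stock transfer was 100 nL into about 20 µL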
# Target sequence (Q9Y5K5 whole entry, looked up): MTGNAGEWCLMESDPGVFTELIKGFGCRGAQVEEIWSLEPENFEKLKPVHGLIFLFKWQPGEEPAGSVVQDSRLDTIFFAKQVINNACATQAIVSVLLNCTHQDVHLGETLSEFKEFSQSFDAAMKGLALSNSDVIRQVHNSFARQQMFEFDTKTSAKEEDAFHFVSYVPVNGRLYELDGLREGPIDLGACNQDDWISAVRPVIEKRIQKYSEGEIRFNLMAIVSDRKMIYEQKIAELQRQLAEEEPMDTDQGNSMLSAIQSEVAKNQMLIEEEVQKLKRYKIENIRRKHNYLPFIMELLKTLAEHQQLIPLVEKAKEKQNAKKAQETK
#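 Signal – fluorescence, ex 355 nm, em 460 nm · System – Proteasome-bound UCH37 · Input – 0.15 nM proteasome as dispensed · Timing – 30 min preincubation with enzyme, 25 min cleavage at room temperature · Read-out basis – percent inhibition of cleavage signal versus uninhibited and no-proteasome wells · Medium – Tris-HCl pH 7.4 with ATP-MgCl2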
# LANA-H2A inh – blocks KSHV LANA binding to histone H2A/H2B. 0.6% of 320,000 active. Q9QR71. inhibition, % (concentration not given with the values). cell-free LANA-H2A/H2B peptide, fluorescence polarization; in the data active = inhibition mostly above about 10%, no sharp cut-off; inactive = mostly below about 6.7%;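 also: stock transfer was 7.5 nL into about 10 µL; 0% = median of vehicle wells and 100% = median of positive control wells; one replicate is shown; the record names a cut of 25% in any replicate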
# T cruzi inh – T. cruzi replication inhibition; T. cruzi beta-gal in NIH3T3, luminescence, 90 h; inhibition, % (no concentration beside the values); 1.4% of 300,000 active; AID 1885;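 active = mean inhibition across valid replicates above about 55%, limit read from the data; inconclusive = mean below that limit but half or more replicates reach it; inactive = mean below it, under half of replicates reach it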;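 also: signal also drops with host cell toxicity which is not excluded here; 0% = plate median of DMSO wells and 100% = zero luminescence signal; higher percent means less beta-gal luminescence so fewer parasites; stock transfer was 50 nL into about 50 µL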
# A1 inh – inhibitors of the anti-apoptotic protein A1, read as caspase activation; MEF A1-2A-BIM cells, Caspase-Glo 3/7 luminescence, 3 h; percent of clofoctol response, vehicle zero; 0.066% of 330,000 active; caspase activation, % (no concentration beside the values); AID 2462;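 active = over half of replicate activation scores above 10%, or exactly half above 10 with the replicate mean above 10; inconclusive = replicate mean below 10 yet half the replicates above 10; inactive = over half of replicates below 10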;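 also: wells of about 30 µL received 50 nL stock; many hits fall short of the cut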
# Calb FLC – C. albicans growth modulation with fluconazole; C. albicans CaCi-2 (fluconazole-resistant clinical isolate) + fluconazole, Alamar Blue growth, 48 h; growth inhibition, % (concentration not given with the values); 0.57% of 300,000 active; AID 1979;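 active = most replicates above 75%; inconclusive = exactly half above 75%; inactive = most below 75%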;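 also: all wells also contain fluconazole at 8 µg/ml as a sub-toxic cotreatment; 0% = median of DMSO wells and 100% = median of geldanamycin control wells; wells of about 8 µL received 7.5 nL stock; the first replicate is given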
# RanGTP-Impb inh – inhibitors of RanGTP-importin-beta interaction, primary screen, biochemical, FRET, CFP-Ran, YFP-importin-beta, homogeneous; cell-free CFP-Ran/YFP-importin-beta FRET ratio; inhibition, % (no concentration beside the values); 1.1% of 300,000 active;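 active = most replicates above 15%; inconclusive = exactly half above 15%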;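 also: 0% = DMSO wells and 100% = Ran loaded with GDP instead of GTP; wells of about 40 µL received 100 nL stock; the first replicate is given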
# Beta apoptosis – blocks beta cell apoptosis; protection from apoptosis, % (concentration not given with the values); 0.8% of 300,000 active; INS-1E cytokine-induced death, ATP luminescence, 48 h; percent of positive-control rescue, neutral wells zero;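 active = all replicates at 75% or more, or half of them and the mean; inconclusive = half reach 75% but not the mean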;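 also: 0% = cytokine-treated negative control wells and 100% = positive control rescue; higher means more ATP so stronger rescue from cytokine killing; wells of about 40 µL received 100 nL stock; the first replicate is given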
# B2AR ag – activates human beta-2 adrenergic receptor causing internalization; P07550; Am2.2-beta2AR cells, FAP receptor internalization, flow cytometry; reference of the scale not given here; response, % (no concentration beside the values); 0.43% of 340,000 active; AID 504454;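 active = response above a set limit, near 3 SD of response in nonfluorescent compounds, cut at about 42% in these data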;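 also: stock transfer was 100 nL into about 11 µL; a reference agonist was the positive control; negative values mostly stem from fluorescent compounds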
# Target sequence (P07550 whole entry, looked up): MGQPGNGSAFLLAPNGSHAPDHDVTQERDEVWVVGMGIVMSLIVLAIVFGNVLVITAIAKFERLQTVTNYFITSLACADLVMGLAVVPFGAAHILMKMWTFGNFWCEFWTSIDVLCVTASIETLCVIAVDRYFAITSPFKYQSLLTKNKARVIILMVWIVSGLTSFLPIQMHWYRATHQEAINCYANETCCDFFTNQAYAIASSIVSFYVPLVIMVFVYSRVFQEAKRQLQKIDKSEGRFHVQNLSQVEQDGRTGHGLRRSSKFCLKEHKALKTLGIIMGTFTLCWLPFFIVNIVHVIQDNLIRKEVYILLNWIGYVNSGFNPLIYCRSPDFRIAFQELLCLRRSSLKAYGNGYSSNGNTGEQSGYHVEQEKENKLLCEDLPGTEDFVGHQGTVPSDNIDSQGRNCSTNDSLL
# The depositor's hits bear a star; ? = inconclusive; / = not tested or not shown. Hits appear at their usual frequency; 4.3% or so of the library scored in one or more.
SMILES,UCH37 inh,LANA-H2A inh,T cruzi inh,A1 inh,Calb FLC,RanGTP-Impb inh,Beta apoptosis,B2AR ag
COc1cccc(CNC(=O)CN(C)S(=O)(=O)c2cnc[nH]2)c1,1.3,-1.6,-10,1.2,-3,-2.7,-4,2
O=C(O)c1ccccc1-c1ccccc1C(=O)Nc1ccccc1-c1ccccc1,5.1,-1.5,-6,-0.9,19,?,/,-4
O=C(CSc1nnc(-c2cccnc2)n1Cc1ccco1)N1c2ccccc2Sc2ccccc21,5.4,0.3,/,-0.2,/,/,-7,-12
O=C(Nc1ncc2c(n1)CC(c1ccco1)CC2=O)c1ccco1 (stereo unspecified),0.8,-10,8,0.3,17,1.1,/,5
COc1ccc2c(c1OC)C(=O)N(C(C)C(=O)O)C2=O (stereo unspecified),-10.0,-3.2,-7,-0.4,0,2.2,4,-1
Cc1nc2ccccc2c(=O)n1-c1ccc(NS(=O)(=O)c2ccc(F)cc2F)cc1,-0.1,6.2,-6,-0.3,-1,0.4,/,8
CCn1ncc(Cl)c1C(=O)Nc1ccncc1,-0.9,-7.1,-12,0.0,-14,-2.7,0,-5
N#CC1=C2SCCN2C(=O)C(C#N)C12CCCCC2 (stereo unspecified),1.8,-5.9,-1,-0.2,6,3.9,-2,9
Cc1cc(NC(=O)CSc2nc(Cc3ccc(O)cc3)c(C)[nH]2)no1,0.6,-4.2,4,0.4,6,3.1,/,1
O=C(/C=C/c1ccccc1)NCCC1=CCCCC1,2.5,-3.9,7,-1.4,-32,-0.9,-3,-8
COc1cc2c(cc1OC)-c1cc(NC3CCCCC3)nc(=O)n1CC2,-3.2,-5.2,-3,0.9,-10,-0.1,10,-3
COc1ccc(Nc2cc(Nc3ccccc3)ncn2)cc1,-1.2,-4.2,13,-3.6,5,-0.7,-6,0
c1ccc(-c2ccncc2)nc1,-7.5,2.7,/,0.9,/,/,-2,-2
COc1cccc(-c2nc3cc(C)ccc3o2)c1,-2.7,-2.8,-15,-8.6,9,-0.6,-3,1
CC(C)c1ccc(O)c(C(=O)c2cnn(-c3ccccc3)c2)c1,3.7,-0.4,-1,-0.5,-15,2.4,3,1
Cc1ccc(F)c(CNC(=O)C2CCC(=O)N(CCCN3CCCC3=O)C2)c1F (stereo unspecified),3.1,1.6,-8,1.4,-3,3.7,-4,-1
CC(=O)Nc1ccc(S(=O)(=O)NCCCc2ccccc2)cc1,0.7,2.7,-25,0.5,-21,1.0,/,-2
CCOc1ccnc2c1c(=O)n(Cc1cc(OC)cc(OC)c1)c(=O)n2C,-0.4,2.7,-8,0.5,-2,6.1,0,-3
CCN(CC)C(=O)c1[nH]cnc1C(=O)NCc1ccccc1,1.5,-3.7,/,-0.6,/,/,-1,2
O=C(NCc1ccco1)c1ccc(CNc2c(N3CCCCC3)c(=O)c2=O)cc1,6.0,4.4,-14,0.3,5,-1.2,0,0
Cc1ccccc1N1CCN(C(=O)CN2C(=O)c3ccccc3C2=O)CC1,3.4,4.1,-17,0.7,1,3.0,1,-4
CCCc1cc(C(=O)Cc2nc3ccccc3s2)c(O)cc1O,-54,-2.1,9,0.0,-1,112*,-2,-5
CC(C)NC(=O)Nc1cccc2c1O[C@H](CN(C)C(=O)NC(C)C)[C@@H](C)CN([C@H](C)CO)C2=O,20*,3.0,/,-1.5,/,/,-11,-5
N=c1ccn(Cc2cccc(Cl)c2)cc1,1.7,2.9,11,0.2,-8,-1.4,25,-6
CN1CCN(c2nc(NCc3ccco3)nc(N)c2[N+](=O)[O-])CC1,12,-2.1,2,0.3,1,4.6,-2,-3
CCOc1ccc(N(CC(=O)NC(C)CC)S(C)(=O)=O)cc1 (stereo unspecified),4.3,0.0,-17,0.8,-8,2.3,5,21
Cc1cc(C)cc(-n2c(SCC(=O)NCc3ccc4c(c3)OCO4)nc3ccccc3c2=O)c1,4.9,2.7,23,0.1,-9,-2.4,2,3
Cc1cc(C)nc(SCc2nnc(SCc3ccc([N+](=O)[O-])cc3)n2Cc2ccco2)n1,1.8,3.0,18,0.1,-3,-1.0,/,-17
c1ccc(Cn2nnc3c(Nc4ccc5c(c4)OCO5)nc(C4CC4)nc32)cc1,-215,1.1,35,1.0,-2,-2.0,15,0
CCn1c(SCc2ccc(C)cc2)nnc1-c1cnccn1,0.0,-0.2,2,-0.3,10,/,0,-2
O=C(O)c1cnn(-c2ccccc2)c1-c1ccccc1,7.3,3.9,-7,0.1,7,-3.3,-6,6
CC(C)(C)c1nnc(NC(=S)Nc2ccccc2)s1,-0.4,-0.9,31,-4.2,9,-4.6,3,0
COc1ccc(CNC(=O)CN2C(=O)CC(c3ccccc3)=Nc3ccccc32)cc1,4.7,-3.3,3,-0.7,-9,-1.0,-3,-17
Cc1noc(C)c1CSc1nnc(-c2cc(Cl)ccc2Cl)n1N,1.9,7.7,-4,-0.1,-1,-1.9,-2,-3
COc1ccccc1-c1cc2nc(C)cc(C)n2n1,-14,-4.2,-12,-0.4,11,0.2,7,-4
COC(=O)N=Nc1c(O)n(Cc2ccccc2)c2ccccc12,5.2,-0.4,5,-0.2,-10,6.7,-7,-8
COc1cc(/C=N/NC(=O)c2cc3ccccc3[nH]2)ccc1O,/,2.2,-1,-1.2,7,-2.3,4,0
CCCCN1CC(O)=C(c2nc(-c3ccc(Br)cc3)cs2)C1=N,0.7,3.8,10,0.0,5,1.7,23,-6
CCc1cc(C(=O)N2CCCC(CCC(=O)NCc3cccc(OC)c3)C2)no1 (stereo unspecified),3.7,4.8,-4,0.5,?,3.4,-1,-6
COc1ccccc1N1C(=O)C=C(Sc2nc(C)cc(C)n2)C1=O,4.4,-6.0,-16,2.9,-15,-2.9,2,7

# A different layout for part of the listing above:
# Sequence of screens – UCH37 inh	LANA-H2A inh	T cruzi inh	A1 inh	Calb FLC	RanGTP-Impb inh	Beta apoptosis	B2AR ag
> Cc1cc(C)cc(-n2c(SCC(=O)NCc3ccc4c(c3)OCO4)nc3ccccc3c2=O)c1
→ 4.9	2.7	23	0.1	-9	-2.4	2	3
> Cc1cc(C)nc(SCc2nnc(SCc3ccc([N+](=O)[O-])cc3)n2Cc2ccco2)n1
→ 1.8	3.0	18	0.1	-3	-1.0	/	-17
> c1ccc(Cn2nnc3c(Nc4ccc5c(c4)OCO5)nc(C4CC4)nc32)cc1
→ -215	1.1	35	1.0	-2	-2.0	15	0
> CCn1c(SCc2ccc(C)cc2)nnc1-c1cnccn1
→ 0.0	-0.2	2	-0.3	10	/	0	-2

# Record cards, from the list above. Values in the order: UCH37 inh, LANA-H2A inh, T cruzi inh, A1 inh, Calb FLC, RanGTP-Impb inh, Beta apoptosis, B2AR ag
# CCCc1cc(C(=O)Cc2nc3ccccc3s2)c(O)cc1O across the screens: -54, -2.1, 9, 0.0, -1, 112*, -2, -5
# O=C(O)c1cnn(-c2ccccc2)c1-c1ccccc1 across the screens: 7.3, 3.9, -7, 0.1, 7, -3.3, -6, 6
# Cc1cc(C)nc(SCc2nnc(SCc3ccc([N+](=O)[O-])cc3)n2Cc2ccco2)n1 across the screens: 1.8, 3.0, 18, 0.1, -3, -1.0, /, -17
# Cc1noc(C)c1CSc1nnc(-c2cc(Cl)ccc2Cl)n1N across the screens: 1.9, 7.7, -4, -0.1, -1, -1.9, -2, -3
# COc1cc(/C=N/NC(=O)c2cc3ccccc3[nH]2)ccc1O across the screens: /, 2.2, -1, -1.2, 7, -2.3, 4, 0

# 2 compounds from above with just UCH37 inh.
canonical_smiles	UCH37 inh
Cc1noc(C)c1CSc1nnc(-c2cc(Cl)ccc2Cl)n1N	1.9
CCc1cc(C(=O)N2CCCC(CCC(=O)NCc3cccc(OC)c3)C2)no1 (stereo unspecified)	3.7

# The results go on:
SMILES,UCH37 inh,LANA-H2A inh,T cruzi inh,A1 inh,Calb FLC,RanGTP-Impb inh,Beta apoptosis,B2AR ag
O=C(CS(=O)CC(=O)N(CC(=O)NC1CCCC1)C1CCCC1)Nc1ccc(F)cc1 (stereo unspecified),0.2,-0.9,11,0.7,-10,0.6,3,1
O=C(COC(=O)CCOc1ccccc1)NCc1ccco1,-1.4,6.0,-10,-0.5,2,-2.2,1,0
O=C(NC(=S)Nc1nc(-c2ccc(Br)cc2)cs1)c1ccco1,4.0,-3.0,14,1.3,?,?,3,2
O=C(Cc1csc(Nc2nc(=S)[nH]c3ccccc23)n1)N1CCN(c2cccc(Cl)c2)CC1,4.1,-4.9,27,1.3,26,2.0,4,0
COc1cc(NC(=O)c2cccnc2SC)cc(OC)c1,0.3,-0.9,-6,0.2,3,1.9,-1,1
Cc1ccc(CN2CCc3[nH]c(=O)[nH]c(=O)c3C2)cc1,-7.0,3.5,-6,0.5,0,-2.2,3,17
CCOC(=O)c1[nH]cnc1C(=O)Nc1ccc(Cl)cc1,-16,-3.1,-5,1.1,47,-2.5,-8,10
COC(=O)Nc1ccc2c(c1)OCO2,1.2,-9.4,-9,-0.8,10,1.0,/,4
COc1ccccc1NS(=O)(=O)c1cc(NC(=O)c2cc[n+]([O-])cc2)ccc1N1CCCC1,9.0,4.9,-15,0.2,-4,-2.2,19,0
O=C(Cc1ccc(NC2=NC3CS(=O)(=O)CC3S2)cc1)NCc1ccccc1 (stereo unspecified),2.0,4.3,10,1.1,-7,5.0,3,3
COc1cccc(N2CCN(C3CC(=O)N(c4ccc(F)c(Cl)c4)C3=O)CC2)c1 (stereo unspecified),0.8,-29,-11,-0.5,-3,-0.8,-3,-3
CCOc1ccc(NC(=O)NNC(=O)c2ccc(CC)s2)cc1,1.9,-2.5,-14,-0.2,-15,-0.1,1,5
CC(C)Sc1nc(N2CCOCC2)c2c(c1C#N)CC(C)(C)SC2,2.6,-0.3,36,-0.7,-2,1.7,7,1
CCCCC(=O)Nc1ccccc1Oc1ccccc1,/,-0.4,3,1.0,?,-1.3,1,-6
COc1ccc(NC(=O)Cn2nc(C)c3ccccc3c2=O)cc1,3.1,0.7,-3,0.1,4,2.7,/,-1
CN(CCO)c1ccc(-c2nn(C)c(=O)c3ccccc23)cc1[N+](=O)[O-],6.0,-4.8,6,-0.2,5,-1.8,-13,3
Cc1cccc(NC(=O)C2CCN(S(=O)(=O)c3ccc4c(c3)C(C)(C)C(=O)N4C)CC2)c1C,4.6,0.4,0,-0.1,4,1.0,-1,1
Clc1ccc(-n2ncc3c(N4CCCCCC4)ncnc32)cc1,7.5,-3.5,-14,-7.7,-2,4.8,/,-6
COc1cccc(C(=O)N2CCCC(c3nc(-c4cccs4)no3)C2)c1 (stereo unspecified),4.2,1.0,13,-0.1,-1,2.2,-5,2
